# miR-21 FLuc: qHTS Assay for Modulators of miRNAs and/orActivators of miR-21. 340,000 tested, under 10 active. HeLa miR-21 FLuc reporter, luciferase, 48 h. Potency, µM (doses to about 38.3 µM), without a hit: at the highest dose reporter change, positive = more light; active = well fitted rising curve with a large enough effect; inconclusive = small, poorly fitted or top-dose-only effect; inactive = no such curve, though single readings can be large or run the other way;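 note: % of control where 0% means no effect; miR-21 action dims this reporter so a rising signal means less miR-21 action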
#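 HeLa cells endogenously expressing miR-21, stably carrying CMV-driven firefly luciferase with a downstream miR-21 binding site, 2000 cells/well. Titrations up to approximately 40 uM, 48 hours; luciferase luminescence read.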
# Rango-impB inh: qHTS Assay for Inhibitors of Rango (Ran-regulated importin-beta cargo) - Importin beta complex formation. Importin subunit beta-1 (Homo sapiens), Q14974. Rango CFP/YFP FRET sensor + importin beta, 45 min. Potency, µM (doses to about 92.2 µM), inactives show top-dose inhibition of complex formation. 340,000 compounds, 0.031% hits. AID 540263, 2011; active = rising FRET ratio curve, often small or poorly fitted; inconclusive = mostly compound fluorescence or quenching in the first reads; inactive = flat curves in all reads;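 note: potency is the fitted concentration of half-maximal effect; 0% = DMSO wells and 100% = buffer wells lacking importin beta; nearly all actives have a fitted effect of over 15% in size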
# Target sequence (Q14974 whole entry, looked up): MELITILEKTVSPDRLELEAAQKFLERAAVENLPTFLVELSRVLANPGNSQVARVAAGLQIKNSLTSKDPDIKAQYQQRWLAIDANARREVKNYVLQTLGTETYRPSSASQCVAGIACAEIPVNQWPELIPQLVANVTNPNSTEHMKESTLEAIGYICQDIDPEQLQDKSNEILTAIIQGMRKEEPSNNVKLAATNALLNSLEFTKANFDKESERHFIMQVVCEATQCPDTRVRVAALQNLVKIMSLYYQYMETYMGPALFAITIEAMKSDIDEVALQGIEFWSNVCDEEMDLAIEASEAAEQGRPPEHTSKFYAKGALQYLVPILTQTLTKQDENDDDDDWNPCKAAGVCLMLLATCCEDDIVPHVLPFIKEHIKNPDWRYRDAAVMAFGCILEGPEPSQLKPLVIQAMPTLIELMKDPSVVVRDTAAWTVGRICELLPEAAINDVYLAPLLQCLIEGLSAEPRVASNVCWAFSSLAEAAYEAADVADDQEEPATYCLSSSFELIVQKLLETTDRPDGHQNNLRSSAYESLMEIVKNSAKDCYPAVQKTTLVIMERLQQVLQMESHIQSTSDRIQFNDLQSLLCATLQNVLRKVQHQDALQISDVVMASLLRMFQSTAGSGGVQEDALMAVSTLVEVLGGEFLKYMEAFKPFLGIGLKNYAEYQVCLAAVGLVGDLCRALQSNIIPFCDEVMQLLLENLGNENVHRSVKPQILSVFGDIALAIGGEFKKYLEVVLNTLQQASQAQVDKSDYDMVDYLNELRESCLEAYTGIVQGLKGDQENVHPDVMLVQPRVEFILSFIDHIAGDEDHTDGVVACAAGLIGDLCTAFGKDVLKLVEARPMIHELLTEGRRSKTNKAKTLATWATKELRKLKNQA
#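 FRET biosensor Rango (snurportin 1 IBB between N-terminal EYFP and C-terminal Cerulean), 50 nM in PBS/1 mM DTT/0.02% Tween-20/0.1% BSA, preincubated 5 min RT with compound; 0.125 microM importin beta added, 45 min RT, CFP/YFP FRET ratio read.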
# GLA inh pH 4.5: qHTS Assay for Inhibitors of Human alpha-Galactosidase at pH 4.5. Alpha-galactosidase A (Homo sapiens), P06280. purified enzyme, 4-MU-alpha-Gal fluorescence, pH 4.5. activity change, negative = inhibition, % at 105 µM. 230,000 tested, under 10 active; inconclusive = small, poorly fitted or top-dose-only inhibition, or a rising curve; inactive = flat fitted curve, though single readings scatter; no compound was filed as active;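 note: 0% = full activity with enzyme and -100% = basal without enzyme; dose as in the result columns while the protocol names 77 µM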
# Rango release inh: qHTS Assay for Inhibitors of RanGTP induced Rango (Ran-regulated importin-beta cargo) - Importin beta complex dissociation; AID 540253, 2011; Biochemical FRET Rango-importin beta, RanGTP-induced dissociation; Snurportin-1 (Homo sapiens) + GTP-binding nuclear protein Ran (Homo sapiens) + Importin …; Potency, µM (highest dose often 46.1 µM), inactives show top-dose activity change, negative = inhibition; 340,000 compounds, 0.071% hits; active means falling FRET ratio curve, often poorly fitted, with flat reads before Ran was added; inconclusive means other falling curves, or compound fluorescence or quenching; inactive means flat or rising ratio curve;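 note: potency is the fitted concentration of half-maximal effect; % of control where 0% means no effect; nearly all actives have a fitted effect of over 45% in size; -100% = wells without RanGTP and RCC1; the record marks most hits as doubtful in a second field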
#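 Quantitative HTS using a FRET biosensor: 0.1 uM Rango, 0.25 uM importin beta, 0.6 uM Ran, 2 mM GTP, 0.2 uM RCC1 final, PBS with DTT, Tween-20 and BSA. Post-read taken 45 min after Ran addition.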
# The depositor's hits bear a star; ? = inconclusive; . = not tested or not shown; & = joins results of further samples.
smiles	GLA inh pH 4.5	miR-21 FLuc	Rango-impB inh	Rango release inh
COc1ccc([C@H]2/C=C\CN(S(=O)(=O)c3ccc(C)cc3)[C@@H](C)C(=O)N2Cc2ccc(F)cc2)cc1	.	.	-1.3%	-9.3%
COc1cc(C(=O)NNC(=O)c2ccco2)cc(OC)c1OC	.	5.3%	19.2%	13.0%
CCNc1sc(C(=O)c2cccs2)c(N)c1C#N	-3.3	-13.8%	1.3%	-13.3%
COc1cc(NC(=S)NC(=O)c2ccccc2F)ccc1NC(=O)c1cccs1	4.4	-9.8%	-3.6%	-2.8%
CC(C)CNC(=S)N(CCCN(C)C)Cc1cc2cc3c(cc2[nH]c1=O)OCCO3	.	-19.0%	2.1%	-0.2%
O=C(c1cccc([N+](=O)[O-])c1)N1CCN(c2ccc(Cl)cc2)CC1	1.6	-2.0%	-4.1%	24.4%
COc1ccc(C)cc1NC(=O)C(OC(=O)c1ccc(Cl)c(S(=O)(=O)N(C)c2ccccc2)c1)c1ccccc1 (configuration not stated)	-13.0	-4.4%	-2.5%	-11.5%
O=C(c1ccc(-c2cccc(C(F)(F)F)c2)o1)N1CCOCC1	-4.3	-77.6%	2.4%	-6.7%
CCOC(=O)c1c(N2C(=O)C3C4C=CC(C4)C3C2=O)sc2c1CCC(C)C2 (configuration not stated)	-11.3	15.5%	3.3%	?
CN(C)/C=N/C(=S)Nc1ccc(Cl)cc1Cl	-22.6	-40.7%	3.5%	-1.0%
CC(C)CC(NC=C1C(=O)OC(C)(C)OC1=O)C(=O)O (configuration not stated)	4.3	-8.8%	-0.9%	7.4%
Cc1ccc(CSCCC(=O)NCCC2=CCCCC2)cc1	1.8	-18.4%	-2.1%	-8.4%
O=C(Nc1cccc(C(F)(F)F)c1)Nc1ccc(N2CCCC2)c(S(=O)(=O)Nc2ccccc2Cl)c1	-17.9	?	-0.4%	-3.4%
CC(=O)c1c(C)n(-c2ccc(C)cc2C)c2ccc(O)cc12	.	12.6%	0.8%	0.2%
O=C1OC[C@@H]2CCCN2C(=O)[C@@H](CC(=O)N(CCO)Cc2ccccc2)C/C=C\C[C@H]1Cc1ccc(F)cc1	.	.	-2.1%	13.7%
Cc1cccn2cc(-c3ccc(Cl)cc3)nc12	-0.1	-36.4%	?	-16.1%
Cc1ccn(CC(=O)N2CCCC(N3CCN(c4cccc(Cl)c4)CC3)C2)n1 (configuration not stated)	.	-3.0%	5.7%	?
CC(=O)Nc1ccc(NC(=O)C/C(C)=N/NC(=O)c2cccc3ccccc23)cc1	.	15.5%	2.8%	3.6%
COc1ccc(S(=O)(=O)NCCC(=O)NCc2ccc(F)cc2)cc1	-1.6	1.6%	-1.4%	5.0%
Cc1ccc2cc(CCNC(=O)Cc3cccs3)c(=O)[nH]c2c1	0.8	-3.6%	?	-14.9%
CC1Cc2ccccc2N1C(=O)C1CCCN(S(=O)(=O)c2cccc3nsnc23)C1 (configuration not stated)	1.9	18.4%	1.5%	-3.9%
COc1ccc(CNC(=O)N2CCN(S(=O)(=O)c3ccc(C)cc3C)CC2)cc1	.	0.4%	1.0%	-10.6%
CC1CCC2(CC1)NC(=S)N(C(C)(C)C)N2 (configuration not stated)	-1.4	0.2%	1.9%	-6.7%
COc1ccc(C2=NN(S(C)(=O)=O)C(c3ccc4nccnc4c3)C2)cc1 (configuration not stated)	4.6	-73.6%	-0.6%	12.7%
CC(=O)N/C(=C/c1ccccc1)C(=O)NC(Cc1ccccc1)C(=O)O (configuration not stated)	9.5	-5.1%	-1.1%	-9.9%
CCc1ccccc1NC(=O)CSc1nc2ccccc2n1CC(=O)N1CCCC1	-0.2	-3.8%	-2.0%	-27.4%
CCOc1ccc(NC(=O)CCCN2C(=O)C(c3ccccc3)Oc3cccnc32)cc1 (configuration not stated)	.	-8.9%&-8.4%	0.8%	-20.6%
Nc1nc(CSC(=S)N2CCOCC2)nc(Nc2ccccc2)n1	-1.9	-75.4%	0.3%	12.1%
CC(C)n1c(=O)[nH]c(=O)n1C(C)C	.	.	6.9%	11.5%
Cc1ccc(F)cc1NC(=O)COC(=O)C1CCN(c2ccc(C(F)(F)F)cn2)CC1	.	.	0.5%	34.0%
COc1ccc(NC(=O)C2Cc3ccccc3CN2C(=O)c2ccco2)cc1 (configuration not stated)	.	-29.1%	?	4.4%
Cc1ccccc1NC(=O)CCN1CCN(CCO)CC1	.	-1.1%	2.8%	-6.2%
Cn1c(N2CCOCC2)c(C#N)c2ccccc21	.	-6.0%	0.2%	8.1%
O=C(CSCc1cccc(Cl)c1)OCc1nc2ccsc2c(=O)[nH]1	.	.	-0.7%	-8.3%
CC(C)n1c(SCC(=O)Nc2ccccc2)nc2c1c(=O)n(C)c(=O)n2C	-2.4	-11.6%	-0.4%	0.3%
Cc1cccc(NC(=O)c2ccc(COc3ccccc3)o2)n1	.	-34.0%	-0.3%	-1.4%
O=C(Nc1cccc([N+](=O)[O-])c1)c1cnccn1	-18.1	-9.2%	2.9%	-8.5%
COc1ccc(-c2c(-c3ccc(OCC(=O)NN)cc3O)n[nH]c2C)cc1	-10.1	12.8%	-4.0%	6.5%
COc1ccc(OC)c(C(=O)CSc2nnc(-c3cccs3)n2C)c1	4.0	-17.7%	-1.1%	13.6%
CCN(CC(=O)NCc1cccs1)C(=O)c1cccc(S(=O)(=O)N(C)C)c1	.	.	-2.2%	-9.2%
Cc1[nH]c(=O)[nH]c(=O)c1/C=N/NC(=O)[C@H](C)N	0.2	-15.2%	1.9%	8.1%
Cc1cnc(NC(=O)CN2CCN(c3ccccc3F)CC2)s1	-17.1	-11.4%	-0.6%	18.2%
COc1ccc(CN2CCN(CC=C(C)C)C(CCO)C2)cc1Cn1cccn1 (configuration not stated)	2.9	-1.3%	13.3%	1.5%
OCCN1CCN(Cc2cc(Br)cc(Br)c2O)CC1	2.7	-2.4%	-1.4%	-1.6%
Cc1ccc(C(=O)NCCCNC(=O)c2ccccc2F)cn1	.	-1.8%	7.1%	20.0%
CCCS(=O)(=O)N1CCC(C(=O)NCCN2CCC(Cc3ccccc3)CC2)CC1	1.6	-3.0%	0.2%	0.2%
COc1ccc(S(=O)(=O)NC2(C(F)(F)F)N=C3SCCN3C2=O)cc1 (configuration not stated)	-22.2	-2.4%	5.8%	-1.6%
CC1CCC2(CC1)NC(=O)N(CC(=O)c1ccc(Cl)s1)C2=O (configuration not stated)	.	-2.2%	0.0%	-4.7%
CS(=O)(=O)c1ccc(Cl)c(NC(=O)COC(=O)/C=C/c2cnc3ccccc3n2)c1	3.3	-6.3%	0.6%	8.9%
CC(=O)Nc1nc2c(c3c1c(=O)oc1ccccc13)CCCC2	-7.5	-2.3%	.	.
OCC#CCSc1nnc(-c2ccccc2Br)o1	1.6	-38.6%	1.6%	?
O=C(COc1ccccc1)Nc1ccc(Cl)cc1Cl	-11.0	-68.9%	.	.
O=C(Nc1cc(C(F)(F)F)ccc1N1CCOCC1)c1ccc(Cl)nc1	1.9	-1.8%	-1.5%	-1.6%
Cc1ccc(CCC(=O)Nc2ccc(CC(=O)O)cc2)o1	.	-2.3%	0.9%	-15.4%
CCn1ncc(S(=O)(=O)NCc2ccccc2Cl)c1C	.	-0.9%	2.9%	-4.3%
CCOCCCNc1nc2c(C)cccn2c(=O)c1/C=C1\SC(=S)N(C(C)CC)C1=O (configuration not stated)	-6.8	2.8%	?	23.0%
CN(C)c1nc(N(C)C)nc(N2CC(=O)N(c3ccccc3)C2=N)n1	3.9	-3.6%	-0.4%	-10.7%
Cc1ccc2[nH]c(=O)c3cc(C(=O)NC(C)C)sc3c2c1	.	-8.4%	-0.5%	2.1%
CCCc1c(NC(=O)Nc2ccc(F)cc2)cnn1-c1ccc(Cl)cc1	7.4	23.3%	?	7.1%
COc1ccc(NC(=O)Nc2c[nH]c(=O)[nH]c2=O)cc1OC	.	1.1%	-1.6%	-3.6%

# The results go on.
smiles	GLA inh pH 4.5	miR-21 FLuc	Rango-impB inh	Rango release inh
CCC(C)NS(=O)(=O)c1ccc(-c2csnn2)s1 (configuration not stated)	8.5	-2.0%	-3.6%	1.3%
Cc1ccc(C(=O)N/N=C/c2c(O)ccc3ccccc23)cn1	.	14.6%	?	?
O=C(COC(=O)Cc1ccccc1[N+](=O)[O-])NNC(=O)c1ccc([N+](=O)[O-])cc1	.	.	7.8%	27.0%
CCOC(=O)C1=C(C)NC(=O)NC1c1c(O)ccc2ccccc12 (configuration not stated)	-4.3	-11.2%	-4.2%	-10.8%
CCCC1CCC(c2ccc(/C(N)=N/O)cc2)CC1 (configuration not stated)	9.7	-10.1%	?	-2.1%
C[C@H](NC(=O)OC(C)(C)C)C(=O)N/N=C/c1ccc2nccnc2c1	11.0	3.9%	2.0%	2.5%
Cc1ccc(CSCCNS(=O)(=O)c2ccc(C)cc2)cc1	7.9	-9.5%	3.0%	7.5%
COc1ccc(N(C(=O)C(C)C)S(=O)(=O)c2cccc([N+](=O)[O-])c2)cc1	10.1	-0.3%	0.2%	9.8%
CCOC(=O)N1CCC(NC(=O)CN2C(=O)COc3ccc(C(C)(C)C)cc32)CC1	3.6	-1.5%	-1.3%	12.2%
O=C(Cc1ccc(S(=O)(=O)N2CCOCC2)s1)N1CCN(S(=O)(=O)c2ccccc2F)CC1	.	.	-0.7%	11.8%
CCOc1ccc(-c2cn(-c3cccc(SC)c3)c(=O)[nH]2)cc1	0.8	-14.0%	?	-11.6%
CC(=O)Nc1ccc(NC(=O)COC(=O)c2c3c(nc4ccccc24)CCN(Cc2ccccc2)C3)cc1	-6.2	0.2%	0.0%	-16.0%
CC(=O)Nc1ccc(C(=O)OCC(=O)Nc2ccc(S(=O)(=O)N3CCOCC3)cc2)cc1	.	.	4.4%	11.6%
CCCC(=O)Nc1ccc(-c2csc(N/N=C\c3ccncc3)n2)cc1	-2.9	27.5%	-0.8%	-15.2%
O=C(COc1ccccc1)Nc1ccc(S(=O)(=O)Nc2ncccn2)cc1	6.8	-1.9%	3.2%	-14.1%
F[B-](F)(F)COCc1ccccc1Br	.	.	0.2%	-5.8%
CC1CCCCC12NC(=O)N(CC(=O)Nc1ccccc1N1CCOCC1)C2=O (configuration not stated)	1.8	-0.7%	3.3%	13.7%
COc1ccc(C(=O)Nc2ccc(N3CCCC3)cc2)cc1	2.1	-22.6%	?	-9.5%
CCOc1ccc(OCc2ccc(C(=O)O)o2)cc1	2.6	-42.5%	-1.1%	0.0%
NC(=S)NNC(=O)c1ccccc1	6.3	-8.5%	-4.6%	6.4%
COc1ccc(CCC(=O)NCc2cn3ccccc3n2)cc1	-1.9	-2.7%	-6.5%	0.9%
CCOc1ncccc1C(=O)N(C)CC1COc2ccccc2O1 (configuration not stated)	0.7	-3.2%	-0.3%	1.9%
O=C1C2CC=C(Cl)CC2C(=O)N1CNc1ccccn1 (configuration not stated)	0.6	-0.1%	2.9%	11.8%
O=C(COC(=O)C1=COCCO1)Nc1ccc([N+](=O)[O-])cc1C(F)(F)F	.	.	1.4%	-3.0%
CN1CCN(S(=O)(=O)c2ccc3c(c2)OCCO3)CC1	7.0	-1.1%	-1.2%	-5.4%
N#C/C(=C\c1cccnc1)C(=O)Nc1ccc(SC(F)F)cc1	.	-7.3%	-1.9%	-7.7%
CC(C)n1ncc2c(C(=O)N3CCN(Cc4ccc(Cl)s4)CC3)cc(C3CC3)nc21	.	.	-2.4%	17.3%

# Bioassay records from PubChem.

# Some of the compounds tested; count on the stated rates, not on these rows.
